# K1F lysis inhibition – protection from phage-mediated lysis, alamar blue read-out – E. coli UTI89, K1F phage, bacterial capsule biogenesis inhibitors (AID 488966); E. coli UTI89 K1F phage lysis, alamar blue, 2 h; higher % means a stronger effect; inhibition, % at 100 µM, or IC50 in µM where a hit was titrated; hit rate 0.02% among 340,000;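 active = phage lysis inhibition, versus mean bacterial control, above a set limit; inconclusive = no clear call, values can overlap the other calls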;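 also: capsule biogenesis inhibitors block K1F phage lysis so surviving cells raise fluorescence; higher fluorescence means more inhibition of phage lysis; actives were called in the ten point dose series up to 300 µM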
# Autophagy mod – alters autophagy in cells | AID 463193 | calls only at 10 µM (by protocol) | MEF GFP-LC3 puncta imaging; test concentration mostly 10 µM | hit rate 0.98% among 190,000;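 active = percentage of spot-positive cells more than 3 SD above its plate mean, without a fluorescence outlier flag or 80% toxicity; inconclusive = no clear call, values can overlap the other calls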;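 also: spot-positive cell cutoff set from DMSO-treated cells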
# MT stabilize HCS – microtubule stabilizers in HeLa cells; HeLa tubulin immunostaining HCS, 24 h; share of cells brighter than vehicle mean+2SD; % tubulin-high responders, % at 10 µM; hit rate 0.83% among 200,000;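 active = plate Z-score above 3 for both tubulin-high and condensed-nucleus cell shares, with cell loss under 80%, at 10 µM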;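 also: anti alpha tubulin signal scored within the nucleus-defined area of each cell; some results filed as inactive read as strong as hits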
# Dynein transport – dynein cargo transport inhibition. z-score, hits read low. hit rate 0.47% among 220,000. 3617.4 mouse cells, GR-EGFP nuclear translocation imaging; test concentration mostly 20 µM; stimulated with dexamethasone, 1 µM; hits give low values;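 active = plate z-score of nuclear minus cytoplasmic receptor signal below a set negative limit, without overly bright fluorescence or cell loss, cut at about -3.5 in these data, passing the limit was not always enough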;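 also: z-score of nuclear minus cytoplasmic ring GR-EGFP intensity difference per well; some compounds called inactive have numbers as strong as hits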
#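 Schedule: 48 h induction, then 1 h compound, then 30 min agonist, 37 °C. Buffer or medium: tetracycline-free induction medium containing charcoal-stripped FBS. Reagent: 1.0 µM final dexamethasone stimulus. Evaluation: nuclear versus cytoplasmic GR-EGFP signal, averaged per well. Signal: high-content fluorescence imaging after fixation.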
# ER stress rescue – rescue of cells from ER stress-induced death, primary screen, 384-well, CSM14.1, thapsigargin, ATP luminescence (AID 1222) | CSM14.1 thapsigargin-induced death rescue, ATP luminescence; higher % means a stronger effect | cellular ATP content (survival), % at 20 µM; hits with a dose series show EC50 in µM | 190,000 tested, under 10 active;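 active = EC50 below 50 µM in the dose-response confirmation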;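 also: death triggered by thapsigargin at about 15 µM added after 2 h compound pretreatment; cell ATP read after overnight thapsigargin exposure of roughly 18 to 22 hours; normalized against plate controls of thapsigargin alone and 5% DMSO vehicle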
# M1AAP inhibition – malaria alanyl aminopeptidase activity blockers – biochemical, fluorogenic H-Leu-NHMec substrate, 1536-well (AID 1445) | recombinant M1AAP, H-Leu-NHMec fluorogenic kinetic assay; higher % means a stronger effect | one-dose inhibition, % at 30 µM; IC50 in µM for titrated hits | hit rate 0.42% among 220,000;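 active = primary inhibition above the hit cutoff, then over 50% inhibition at one or more dose response concentrations, cut at about 23% in these data, passing the limit was not always enough; inconclusive = conflicting primary data, or primary hits not chosen for dose response; inactive = low primary inhibition, or under 50% at every dose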;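 also: plate controls were DMSO full reaction for no effect and no enzyme background for full effect; strong numbers were not always called active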
# Ins promoter up – MIN6 insulin promoter up-regulation; z-score at 5 µM; AID 1625; MIN6 insulin promoter-GFP reporter, high-content imaging; hits give high values; hit rate 0.3% among 190,000;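 active = z-score above 3 at 5 µM with at least 500 cells counted in the well; inconclusive = wells under 500 cells, flagged as cytotoxic or low count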
# M17LAP inhibition – P. falciparum M17LAP inhibitors, primary screen, biochemical, fluorogenic H-Leu-NHMec substrate, 1536-well (AID 1619) | hit rate 0.38% among 220,000 | recombinant M17LAP, H-Leu-NHMec fluorogenic kinetic assay; higher % means a stronger effect | inhibition, % at 30 µM, or IC50 in µM where a hit was titrated;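 active = compound inhibiting the enzyme by more than half at any dose during confirmatory dose-response retesting; inconclusive = strong single-dose inhibitors picked by rank but not retested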;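 also: plate controls were full reaction with DMSO carrier for no effect and no enzyme background for full effect; strong numbers were not always called active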
# Dynein transport cytoplasmic EGFP – also measured in Dynein transport; calls as there; z-score; measured here: cytoplasmic GR-EGFP intensity; hits give high values
# Dynein transport nuclear GR-EGFP – second read-out of Dynein transport, no call of its own (marks repeat the call); z-score; measured here: nuclear GR-EGFP intensity;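 lower value marks the stronger effect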
# Dynein transport cell count – also measured in Dynein transport; calls as there; z-score; measured here: cell count per field
# Ins promoter up cell count – recorded beside Ins promoter up, whose call it bears; cell count; measured here: cytotoxicity, nuclei count;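 total cells summed across four imaged fields per well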
# MT stabilize HCS Hoechst-high % – recorded beside MT stabilize HCS, whose call it bears; % Hoechst-high responders; measured here: nuclear condensation Hoechst responders;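 share of cells brighter than vehicle mean plus two SD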
# MT stabilize HCS cytotoxicity % – further read-out of MT stabilize HCS, marked with its call; toxicity, %; measured here: cytotoxicity by cell density;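 0% = mean cell density of plate MIN control wells and 100% = no cells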
# Autophagy mod cell loss 18 h – further read-out of Autophagy mod, marked with its call; toxicity, %; measured here: cell loss, nuclei count;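 cell loss after 18 h compound exposure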
# * hit, by the source's call; i = inactive; ? = inconclusive; / = not tested or not shown; [ ] = dose if it differs, or a comment. An excerpt. The share of hits here may be higher or lower than overall.
SMILES,K1F lysis inhibition,Autophagy mod,Autophagy mod cell loss 18 h,MT stabilize HCS,MT stabilize HCS Hoechst-high %,MT stabilize HCS cytotoxicity %,Dynein transport,Dynein transport cytoplasmic EGFP,Dynein transport nuclear GR-EGFP,Dynein transport cell count,ER stress rescue,M1AAP inhibition,Ins promoter up,Ins promoter up cell count,M17LAP inhibition
COC(=O)c1cc(CSc2nc3ccc(C)cc3[nH]2)oc1C,0.4%,i,18,3.9,2.3,0.8,-0.46,-0.39,-0.39,0.69,-0.1%,/,-3.9,912,/
CCCS(=O)(=O)N1CCCC(C(=O)NCCN(Cc2ccccc2)C(C)C)C1 (stereo not drawn),0.2%,i,-7,2.2,1.4,4.0,0.012,-0.19,-0.18,0.35,-0.7%,6%,0.77,1482,13%
N#Cc1cc2c(nc1SC1CCCCC1O)CCCC2 (stereo not drawn),-0.2%,i,-1,4.5,1.3,6.4,1.3,-0.19,-0.45,-0.17,-0.8%,0%,-0.61,1703,12%
N=c1n(CCN2CCOCC2)c2ccccc2n1CC(=O)c1ccc(Cl)c(Cl)c1,-0.3%,i,-5,5.5,2.2,6.0,-0.49,-0.22,0.012,0.031,-2.0%,0%,0.43,760,-14%
CN1CCCC1CCNC1C2CC3CC(C2)CC1C3 (stereo not drawn),5.6%,i,12,2.3,2.3,8.6,-0.34,1.4,0.63,0.74,-0.8%,-6%,-1.2,1493,3%
O=C(c1ccc(Br)cc1)c1cc(-c2ccccn2)c(N2CCOCC2)s1,0.4%,i,-3,7.0,2.5,3.5,-1,-0.24,-0.31,-0.092,1.4%,1%,0.06,1385,6%
CC(CC(=O)NC1CCCC1)c1ccccc1 (stereo not drawn),0.1%,i,-3,1.2,1.5,5.8,1.3,-0.15,0.2,-1.9,-0.5%,6%,-0.44,1628,13%
COCCCNC(=O)CCS(=O)(=O)Cc1ccc(C)cc1,0.4%,i,-3,1.8,1.4,0.3,-0.32,-0.19,-0.13,0.64,-0.7%,10%,0.38,1681,-4%
CCn1c(C)[n+](CCCS(=O)(=O)[O-])c2cc(Cl)c(Cl)cc21,-0.1%,i,7,2.2,0.8,5.8,-0.18,-0.21,0.59,0.61,-2.1%,33%,-0.16,1515,-10%
Cc1c(NC(=O)OCCNC(=O)Nc2ccccc2)sc(=S)n1C,0.0%,i,8,3.6,1.8,7.9,0.86,-0.25,1,-1.6,-1.1%,5%,-0.97,1727,19%
CN(Cc1cc2ccccc2[nH]c1=O)S(C)(=O)=O,0.3%,i,18,6.0,3.3,4.4,-0.44,-0.34,0.2,-0.36,-1.8%,0%,-0.03,1588,10%
O=C(O)CSc1nnc(Cn2c(=O)sc3ccccc32)n1-c1cccc(Cl)c1,5.3%,i,8,2.5,1.9,7.3,1.4,-0.054,0.76,-0.57,-1.0%,?,1.1,1466,2%
Cc1c(Cl)cccc1N1C(=O)C(N2C(=O)c3cccc([N+](=O)[O-])c3C2=O)C1c1cccs1 (stereo not drawn),0.3%,i,-4,2.0,2.2,7.5,-0.74,-0.095,-0.23,0.47,-1.5%,-2%,-0.04,1586,-8%
CCOC(=O)C=C1CCN(c2ncc(C(F)(F)F)cc2Cl)CC1,0.0%,i,16,1.6,1.7,8.0,-0.1,-0.19,-0.35,-0.073,-0.9%,3%,0.15,1918,-9%
O=C(Oc1c(Cl)cc(Cl)c2ccccc12)N1CCCC1,0.7%,i,-2,2.9,2.7,3.0,-0.39,-0.15,-0.81,0.0061,-0.8%,14%,0.39,1473,5%
Cc1cc2nc(C3CCN(Cc4nnnn4Cc4ccccc4)CC3)[nH]c2cc1C,-0.1%,i,18,2.0,0.7,2.1,0.56,-0.18,0.3,-0.81,6.7%,3%,-0.63,1324,5%
CN(C)S(=O)(=O)c1ccc(NC(=O)N2CCN(c3ccccc3)CC2)cc1,0.6%,i,-27,2.7,1.9,7.5,0.88,-0.22,1.2,-0.89,-0.8%,1%,-0.84,1292,-5%
COc1ccc(C(=O)OC2CCN(c3ncc(C(F)(F)F)cc3Cl)CC2)cc1,-0.1%,i,6,1.5,1.1,1.9,-0.0075,-0.21,-0.19,0.58,-0.4%,11%,0.25,1449,4%
COC(=O)C1=C(NC(=O)c2ccc(C)c(C)c2)CCS1,3.2%,i,8,4.9,3.2,9.3,-0.97,-0.039,-0.31,0.45,-0.2%,11%,-0.06,1512,33%
COc1cc(-c2cc(-c3ccccc3)nc(SCC(=O)Nc3nccs3)c2C#N)cc(OC)c1OC,0.4%,i,24,3.8,1.8,3.5,-0.64,-0.22,0.14,0.93,3.1%,7%,-0.28,1570,15%
Cc1ccc2c(c1)-c1c(cnn1CC(=O)O)CO2,-2.9%[50 µM],i,-3,4.5,2.4,13,1,-0.3,0.72,-0.44,0.5%,1%,0.74,1394,0%
Cc1ccc2c(c1)N(CCC(=O)NCCCOC(C)C)C(=O)C(C)O2 (stereo not drawn),-0.4%,i,3,1.9,1.5,7.0,-0.54,-0.21,-0.23,0.55,-1.1%,0%,0.38,1575,8%
CCCn1nc2cc(C(=O)NCc3ccc(C)cc3)ccc2c1OCC,0.6%,i,9,2.2,1.9,7.7,0.0089,-0.22,0.41,0.18,0.5%,5%,0.13,1534,-23%
O=C(Cn1cnc2cc(Cl)ccc2c1=O)Nc1ccc2c(c1)OCO2,1.3%,i,-33,2.3,2.4,7.3,0.17,-0.19,0.63,0.59,0.2%,0%,0.79,1363,-7%
COC(=O)C1C2CCC(C2)C1C(=O)OCC(=O)c1ccccc1 (stereo not drawn),0.1%,i,-19,1.9,1.5,11,0.11,-0.065,0.7,0.25,-1.5%,1%,2.3,1673,-4%
CCCn1nnc(NC(=O)c2cccc(Cl)c2)n1,1.1%,i,0,1.7,1.6,6.5,-0.35,-0.24,-0.88,0.68,0.4%,8%,-0.33,1543,4%
COc1cc(C2NC(=O)NC(c3ccccc3)=C2C(C)=O)ccc1OCC#N (stereo not drawn),0.1%,i,-3,1.8,1.7,2.7,-0.41,-0.2,0.046,-0.12,0.0%,2%,0.67,1607,11%
COc1ccc2sc3c(=O)[nH]c4ccccc4c3c2c1,-0.5%,i,34,3.2,3.4,22,-0.22,-0.16,0.36,0.14,-0.8%,-3%,0.05,1312,7%
CCCc1cc(=O)oc2cc(OCc3nn[nH]n3)ccc12,-0.3%,i,-26,2.2,1.7,7.1,0.035,-0.19,0.86,0.55,-0.6%,2%,-0.31,1542,-9%
Cc1ccc(/C=C2/NC(=O)N(Cc3ccccc3)C2=O)s1,-3.8%,i,17,2.0,1.9,0.3,-5.2,10,0.46,0.59,-1.9%,11%,0.76,1435,2%
CC1(C)CC(=O)C2=C(C1)N(Cc1ccccc1)C(=O)C2(NC(=O)C(C)(C)C)C(F)(F)F (stereo not drawn),-0.1%,i,0,2.5,0.8,4.8,-0.37,-0.091,-0.71,-0.53,5.3%,4%,-0.21,1602,1%
COC(=O)C1=C(C(=O)OC)C(c2cc(Cl)ccc2O)c2sc(=O)[nH]c2S1 (stereo not drawn),4.9%,i,-2,2.0,1.2,11,-0.71,-0.16,-0.47,0.13,-0.4%,6%,0.3,1583,16%
C=CCn1cnc2scc(-c3ccccc3)c2c1=O,0.2%,i,38,1.3,2.1,13,-0.26,-0.21,-0.14,0.32,-1.3%,-1%,-0.62,1613,4%
O=C(c1ccc(COc2ccccc2Br)o1)N1CCN(c2ccccn2)CC1,-0.1%,i,1,1.6,0.8,7.7,-0.55,-0.2,-0.9,-0.24,-0.1%,7%,-0.19,1626,9%
COc1ccccc1-n1c(CNC(=O)c2ccco2)nnc1SCC(=O)Nc1ccc(F)cc1,0.8%,i,2,3.2,2.3,4.6,-0.31,-0.2,-0.16,0.89,-1.2%,-2%,-0.01,1192,3%
Cc1nc(NS(=O)(=O)c2ccccc2)sc1NC(=O)OC(C)C,1.9%,i,6,3.6,3.2,15,2.1,-0.14,1.1,-1.9,-0.5%,8%,0.2,1579,14%
CCOc1ccccc1N1CN(CC)CNC1=S,-0.3%,i,-1,1.5,1.3,5.0,0.22,-0.23,-0.071,0.27,-0.6%,8%,1.4,1709,-12%
Cc1ccc(NCCC(=O)c2ccc(Cl)c(Cl)c2)cc1,-0.4%,i,5,0.8,1.4,4.2,-0.41,-0.23,-0.61,0.47,-1.4%,14%,0.04,1619,2%
CCC(=O)NC(=S)Nc1ccc(S(=O)(=O)NC(C)=O)cc1,0.2%,i,0,1.8,1.7,4.9,0.068,-0.19,0.18,-0.66,-0.7%,4%,0.05,1589,2%
Cc1oc2c(O)c(O)ccc2c(=O)c1-c1cnn(-c2ccccc2)c1,3.6%,i,6,7.8,2.0,1.7,-0.47,-0.26,0.038,-0.74,-1.2%,17%,0.32,1381,35%
O=C(O)c1ccccc1-c1ccccc1C(=O)NCCCO,2.5%,i,1,3.3,0.9,1.7,-0.38,-0.21,-0.076,0.7,-1.5%,7%,0.61,1423,2%
Cn1c(Nn2cnnc2)nc2ccccc21,4.5%,i,-49,3.0,2.1,10,-1.2,-0.2,-0.37,0.29,4.2%,5%,-0.47,1518,-5%
CCCCN1C2=C(C(=O)CCC2)C(c2ccc(Cl)c(Cl)c2)C2=C1c1ccccc1C2=O (stereo not drawn),0.2%,i,3,3.5,1.3,3.5,-0.19,-0.096,-0.11,-0.065,2.9%,-3%,-0.04,1563,0%
